Yeast UUG start – modulators of yeast start codon fidelity, primary screen, whole organism, S. cerevisiae, single point, plate reader; S. cerevisiae UUG-firefly luciferase reporter, luminescence/redox ratio; activity score, % at 18.7 µM; actives 0.13% (n = 350,000); AID 602363, 2012;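 active = replicate mean at a twofold rise or more, about +100% in these data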;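 also: firefly luciferase made from a UUG start codon reports start codon fidelity; reporter light over untreated wells divided by growth signal over untreated wells; some hits fall short of that in this replicate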
MT1-MMP act inh – blockers of MT1-MMP proenzyme processing, primary screen, HT1080 RFP-PRO-GFP cells, GFP/RFP fluorescence; Matrix metalloproteinase-14 (Homo sapiens), P50281; GFP/RFP ratio fluorescence, overnight; percent of plate control window, DMSO zero; GFP/RFP ratio change, % at 20 µM; actives 0.061% (n = 360,000); AID 651647, 2012;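 active = GFP/RFP ratio change of at least 30% with cell ATP level not reduced by more than half and red fluorescence within 50% of control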; also: strong numbers were not always called active
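Assay system: RFP-PRO-GFP reporter HT1080 cells; read-out basis: GFP/RFP fluorescence ratio; benchmarks: DMSO wells and RFP-L50D-GFP cells; doses: 20 µM single dose, 1% DMSO; schedule: overnight cell settling, then overnight compound exposure, 37 °C, 5% CO2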
CSC inhib – cancer stem cell viability inhibitors, primary screen, luminescence | cancer stem cell-like cells viability | inhibition, % at 7.5 µM | actives 1.1% (n = 300,000) | AID 2717, 2010;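 active = mean at 75% or more and at least half the replicates too; inconclusive = mean and replicates disagree; tested in HMLE shEcad cells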;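 also: 0% = median of negative and 100% = median of positive control wells; the first replicate is given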
Rce1 inh – yeast Rce1p protease inhibitors, primary screen, biochemical, fluorescence, cell-free homogeneous. actives 0.27% (n = 290,000). calls only. yeast membranes, quenched prenylated peptide cleavage fluorescence. CAAX prenyl protease 2 (Saccharomyces cerevisiae (strain ATCC 204508 / S288c)), Q03530;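 active = fall in fluorescence gain of 50% or more versus controls, with final raw signal at or below 3038400; inconclusive = same 50% fall but final raw signal above 3038400; inactive = fall in fluorescence gain under 50%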;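 also: plate controls were neutral control wells for no effect and wells lacking membranes for full effect; tested at 10 µM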
eIF4H inh – human eIF4H binding inhibitors, primary screen, translation initiation inhibitor project, biochemical, uHTS, fluorescence polarization; AID 2012, 2009; actives 0.94% (n = 290,000); inhibition, % at 35 µM; eIF4H fluorescence polarization binding assay;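 active = 50% or more with normal probe brightness, or confirmed in later tests; inconclusive = above 50% with abnormal brightness, or retests that disagree; inactive = below 50% or failed in later tests; about a fifth of its hits are not listed in these tables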;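 also: calls also rest on retests at 20 µM and on dose response follow-up; 0% = protein and probe with vehicle and 100% = probe without protein; strong numbers were not always called active; many hits fall short of the cut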
PABP polyA inh – PABP poly(A) RNA binding inhibitors, primary screen, biochemical, fluorescence polarization, uHTS; Polyadenylate-binding protein 1 (Homo sapiens), P11940; inhibition, % at 35 µM; actives 1% (n = 290,000); AID 2014, 2009;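 active = 50% or more with normal probe brightness, or confirmed in later tests; inconclusive = above 50% with abnormal brightness, or retests that disagree; inactive = below 50% or failed in later tests; about a fifth of its hits are not listed in these tables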;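 also: calls also rest on retests at 20 µM and on dose response follow-up; controls were probe without protein and protein plus probe with vehicle; some compounds called inactive have numbers as strong as hits; many hits fall short of the cut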
Target sequence (P11940 whole entry, looked up): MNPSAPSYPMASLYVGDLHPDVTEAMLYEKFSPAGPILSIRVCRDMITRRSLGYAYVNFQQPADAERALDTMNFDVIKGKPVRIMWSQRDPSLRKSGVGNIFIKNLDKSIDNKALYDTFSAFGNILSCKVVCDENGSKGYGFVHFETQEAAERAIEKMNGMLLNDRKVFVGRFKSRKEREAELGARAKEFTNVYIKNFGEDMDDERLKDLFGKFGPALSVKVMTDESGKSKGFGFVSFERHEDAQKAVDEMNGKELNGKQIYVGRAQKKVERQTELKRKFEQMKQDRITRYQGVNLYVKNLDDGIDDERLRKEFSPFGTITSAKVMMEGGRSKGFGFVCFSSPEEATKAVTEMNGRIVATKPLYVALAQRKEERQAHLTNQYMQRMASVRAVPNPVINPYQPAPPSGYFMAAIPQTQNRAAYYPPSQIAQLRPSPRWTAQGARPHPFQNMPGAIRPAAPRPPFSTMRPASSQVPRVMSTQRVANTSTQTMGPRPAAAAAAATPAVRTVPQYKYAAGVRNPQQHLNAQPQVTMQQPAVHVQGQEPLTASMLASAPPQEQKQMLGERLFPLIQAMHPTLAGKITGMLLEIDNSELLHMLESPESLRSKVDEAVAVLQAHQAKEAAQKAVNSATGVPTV
HIV Env fusion – inhibitors of HIV-1 Env-driven cell-cell fusion, primary screen, HeLa-JRFL effector, CEM21 target cells, luciferase; actives 1.1% (n = 360,000); inhibition, % at 12.3 µM;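 active = mean replicate inhibition score of at least 50 and every replicate individually at or above 50; inconclusive = only one of the two criteria met; inactive = mean below 50 and not all replicates reaching 50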;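 also: 0% = plate neutral controls and 100% = maraviroc near 300 nM; one replicate is shown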
eIF4H inh retest – second read-out of eIF4H inh, no call of its own (marks repeat the call); inhibition, %; compound at 20 µM; confirmation average;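 mean of two retest wells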
PABP polyA inh retest – recorded beside PABP polyA inh, whose call it bears; inhibition, %; compound at 20 µM; confirmation repeats;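 mean of two retest wells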
MT1-MMP act inh RFP – second read-out of MT1-MMP act inh, no call of its own (marks repeat the call); RFP signal change, %; measured here: RFP expression control read;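 0 = vehicle wells; hits needed this value within 50% of zero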
Active calls of the source: *; i = inactive; u = inconclusive; x = not tested or not shown.

SMILES	Yeast UUG start	MT1-MMP act inh	MT1-MMP act inh RFP	CSC inhib	Rce1 inh	eIF4H inh	PABP polyA inh	HIV Env fusion	others
Cc1c(C)c2c(OCC(=O)NCC(=O)NCC(=O)O)cc3c(c2oc1=O)CCC(C)(C)O3	15	2	3	4	u	-3	-15	-3
Cc1ccc(SCc2ccc(C(=O)Nc3ccccc3Br)cc2)cc1	x	0	1	4	i	-4	-1	-5
Cc1cccc(Sc2c([N+](=O)[O-])ncn2C)n1	-34	5	0	9	i	-4	-2	-107
CC(C)CCN1CCN(Cc2cccn2-c2nccs2)CC1CCO (stereo unspecified)	x	4	0	11	i	10	-4	5
Cn1ccsc1=NC(=O)c1ccc([N+](=O)[O-])o1	-6	-1	-5	5	i	80*	45*	x	eIF4H inh retest=70*;PABP polyA inh retest=52*
Cc1ccc(S(=O)(=O)Nc2ccccc2CNc2ncc(Br)cc2Br)cc1	-9	-9	-17	20	i	2	4	9
O=C(CSc1ccsc1[N+](=O)[O-])NCCc1ccc(Cl)cc1	-5	3	-4	1	i	-12	6	-66
O=C(ONC1=NCCCCC1)c1cccc([N+](=O)[O-])c1	x	-4	-1	-6	i	-8	-13	2
Cc1cn([C@H]2C[C@H](O)[C@@H](/C=C/C(=O)NCc3ccccc3)O2)c(=O)[nH]c1=O	4	1	1	x	x	x	x	6
COc1ccc(CCNC(=O)COC(=O)c2ccc([N+](=O)[O-])o2)cc1	3	-2	2	-10	x	x	x	6
Cn1c(C(=O)OC(C(=O)NC2CCCC2)c2ccncc2)cc2sccc21 (stereo unspecified)	-13	9	-3	2	i	8	2	11
COc1cccc(CNC(=O)COC(=O)c2ccc(Cl)s2)c1	-14	0	1	-1	x	x	x	21
CCOC(=O)CNc1ccc(OC(F)(F)F)cc1	-5	1	4	3	i	0	1	-4
Cc1ccc2[nH]c(=O)c(CN(CCCN3CCOCC3)C(=O)Nc3ccc(Cl)cc3)cc2c1	x	1	-6	4	i	1	-3	4
O=C(Nc1ccc2nn(-c3ccccc3)nc2c1)c1ccc(Br)o1	-20	-2	-2	-2	i	-6	-1	x

3 entries picked at random from the list so far:
SMILES	Yeast UUG start	MT1-MMP act inh	MT1-MMP act inh RFP	CSC inhib	Rce1 inh	eIF4H inh	PABP polyA inh	HIV Env fusion	others
COc1ccc(CCNC(=O)COC(=O)c2ccc([N+](=O)[O-])o2)cc1	3	-2	2	-10	x	x	x	6
O=C(CSc1ccsc1[N+](=O)[O-])NCCc1ccc(Cl)cc1	-5	3	-4	1	i	-12	6	-66
CCOC(=O)CNc1ccc(OC(F)(F)F)cc1	-5	1	4	3	i	0	1	-4

(listing goes on)
SMILES	Yeast UUG start	MT1-MMP act inh	MT1-MMP act inh RFP	CSC inhib	Rce1 inh	eIF4H inh	PABP polyA inh	HIV Env fusion	others
CCC1(C)C2(C#N)C(N)=NC(OC)(OC)C12C#N (stereo unspecified)	-15	1	7	6	i	1	47	x
CCS(=O)(=O)N1Cc2ccccc2CC1C(=O)Nc1nc2ccccc2[nH]1 (stereo unspecified)	x	0	-2	-5	i	-3	4	-95
COc1ccccc1-n1nc(C(=O)Nc2ccc3c(c2)OCO3)c2ccccc2c1=O	-17	-3	-2	-20	i	0	-5	x
Cc1ccc(C#CC[N+](C)(C)CC#Cc2ccccc2)cc1	x	-6	-5	-3	i	-1	4	-8
COc1ccccc1N1C(=N)S/C(=C\c2ccc(-c3ccccc3C(=O)O)o2)C1=O	x	-33	8	0	i	59*	4	19	eIF4H inh retest=60*;PABP polyA inh retest=29
CCOC(=O)CSc1nc(-c2ccc(OC)cc2)ns1	-17	-2	1	-5	i	11	-6	10
CC(C)C(=O)N(Cc1ccccc1)S(=O)(=O)c1ccc2c(c1)oc(=O)n2C	-18	-40	-1	-3	i	u	u	17
CC(C)(C)n1nnnc1C(c1ccc(Cl)cc1)N1CCSCC1 (stereo unspecified)	x	-5	-1	-18	i	13	4	x
O=C1N(Cc2cccnc2)C[C@@H]2C[C@@H](c3ccccc3C#Cc3ccccc3)N3CCC[C@@]123	-13	-9	-3	14	i	2	10	4
COCc1nnc(NC(=O)CCc2ccccc2)s1	-25	1	4	-2	i	-8	-1	-44
O=[N+]([O-])c1ccccc1S(=O)(=O)NCc1ccc(F)cc1	x	0	1	2	i	0	-1	17
O=C(c1cc2nc(-c3ccco3)cc(C(F)(F)F)n2n1)N1CCN(Cc2ccccc2)CC1	-22	2	-6	-10	i	-8	-6	x
O=C(COc1ccccc1F)N1c2ccccc2CCc2ccccc21	x	0	0	-11	x	-1	-12	-67
O=C(O)c1ccc(Cl)c(S(=O)(=O)Nc2ccccc2N2CCOCC2)c1	x	1	3	-1	i	1	-12	3
COc1cccc(C2CC(c3ccccc3)Nc3nc(N)nn32)c1 (stereo unspecified)	-13	1	0	-5	i	-13	-3	19
CCCCC(c1nnnn1CCOC)N1CCN(Cc2ccccc2)CC1 (stereo unspecified)	-5	-3	2	-9	i	7	-3	1
CCCCCn1c(SCC(=O)OC)nc2c1c(=O)[nH]c(=O)n2C	-10	1	2	-3	i	-2	-7	-2
O=C(O)c1csc(-c2cccs2)n1	-12	2	6	-8	i	-8	-11	-4
Cc1ccc(C)c(NC(=O)c2cc(=O)c3ccccc3o2)c1	x	-3	-1	-1	i	6	2	-10
Cc1[nH]n(-c2ccccc2)c(=O)c1N=Nc1cccc(C(=O)O)c1	-77	1	7	-9	i	4	16	58*
O=c1cc(-c2ccccc2F)oc2ccccc12	-22	-2	-7	-14	i	-5	22	-372
CC(C)(C)c1ccc(NC(=O)c2ccc(=O)[nH]n2)cc1	-26	3	1	-2	i	1	2	-65
O=C(Nc1ccccc1N1CCCCC1)c1cccs1	x	-2	-6	-12	i	-12	-6	37
Cc1c(Br)c([N+](=O)[O-])nn1CC(=O)Nc1ccccn1	-13	-4	1	-15	i	-1	-4	-2
CCOc1ccccc1C(=O)NCCc1cnc[nH]1	-16	0	2	-13	i	3	23	-22
Cc1ccc(NC(=S)c2ccccc2)cc1	-20	3	0	-2	i	-3	9	x
Cc1ccc(C(=O)Nc2ccc3c(c2)OCO3)cc1	-54	6	5	7	i	-6	-11	-184
COCCN(C(=S)Nc1ccc(C)cc1)C(C)c1cccnc1 (stereo unspecified)	x	2	2	-18	i	8	-9	12
COc1ccc(-c2oc3cccnc3c2/C=C/c2ccc(OC)c(OC)c2)cc1	-19	0	-3	21	u	8	13	-27
O=C(NCc1ccc(F)cc1)C1Cc2ccccc2CN1C(=O)c1ccco1 (stereo unspecified)	-39	-3	4	-9	i	-10	5	-3
CC(=O)NCCc1nc2cc(NC(=O)c3ccccc3Cl)ccc2n1C	-13	1	3	-3	i	-8	7	4
O=C(Nc1nc2cc3c(cc2s1)OCCO3)C1CCCCC1	-64	0	-16	x	x	x	x	-159
Nc1ccccc1SCc1cn2cccnc2n1	-13	-1	5	-7	i	-7	-9	-118
CCOC(=O)N1CCN(C(=O)CSc2ccc(-c3cccnc3)nn2)CC1	x	x	x	-1	i	-5	4	-6
Nc1cccc(NC(=O)CN2CCOCC2)c1	-1	0	5	x	i	6	8	-73
O=C(NCCc1ccccc1)c1cc(-c2ccncc2)nc2ccc(S(=O)(=O)N3CCOCC3)cc12	-14	-1	1	-1	i	-10	-8	7
COC(=O)CC(NS(=O)(=O)c1cccs1)c1ccc2c(c1)OCO2 (stereo unspecified)	-17	-1	0	-12	i	0	5	-13
CCOc1ccc(C2C(C#N)=C(N)Oc3cc(C)[nH]c(=O)c32)cc1OC (stereo unspecified)	-12	5	3	-7	i	-4	0	6
CCNC(=O)Nn1c(C)nnc1C	-7	2	8	18	i	-4	6	x
O=C(CC1=NC2(CCCC2)Cc2ccccc21)N1CCOCC1	3	-3	4	-2	i	2	28	x
CCCCNC(=O)Nc1nnc(-c2ccc(Cl)cc2)o1	x	1	11	0	i	3	1	x
CCCCNC(=O)COn1nnc2ccc(S(=O)(=O)N3CCOCC3)cc21	-27	-6	-5	-3	i	x	x	x
COc1ccc(NC(=O)CN(C)C(=O)c2csc3c2CCCC3)cc1	-14	0	2	-4	i	x	x	x
Cc1nnc(SCC(=O)Nc2ccc(N3CCOCC3)cc2)n1Cc1ccccc1	-16	3	-1	-17	x	x	x	x
Cc1cc2cc(CNC(=S)NCc3ccccc3)ccc2n1C	-9	46*	49*	-11	i	56	2	12	eIF4H inh retest=35;PABP polyA inh retest=35
CC(=O)Nc1ccc(NC(=S)NC(=O)C2CCCC2)cc1	-18	-1	1	-5	i	-8	-5	-22
COCCn1c(SCC(=O)N2CCCCC2)nc2cccnc21	-14	1	5	7	i	1	-5	x
CSc1ccc(CN2C(=O)C(C)ON=C2c2ccccc2F)cc1 (stereo unspecified)	-14	0	-5	x	x	x	x	17
CCOc1ccc(OCC)c(NC(=O)CCn2c(=O)oc3ccccc32)c1	-5	2	-6	-8	i	2	1	-38
CCc1ccc(NC(=O)NCCN2CCCCC2)cc1	108*	2	-1	-5	i	6	-2	-28
COc1ccc(C2CC(c3ccc(OC)c(OC)c3)=NN2S(C)(=O)=O)cc1 (stereo unspecified)	-12	-3	-14	-6	i	2	4	-30
Cc1cccc(-n2c(SCC(=O)Nc3ncc(Cl)cc3Cl)nc3ccccc32)c1	-14	-12	-6	50	i	0	-2	34
C[C@@H](C(=O)N1CCNCC1)n1cc(CCC(=O)O)nn1	-6	2	4	8	i	8	13	8
COc1ccc(C(=O)[C@H]2[C@H]3C(=O)N(c4ccccc4)C(=O)[C@H]3C3C=CC=NN32)cc1 (stereo partly specified)	5	-3	6	-12	i	-7	8	6
O=c1c2ccccc2nc(/C=C/c2cccc([N+](=O)[O-])c2)n1CCO	x	-2	0	5	i	-12	3	-26
CCc1noc(C)c1C(=O)NCCc1c[nH]c2ccccc12	-9	-2	1	-23	i	x	x	-5
CCOC(=O)N1CCN(C(=O)C2CCCN(S(=O)(=O)c3ccc(OCC)cc3)C2)CC1 (stereo unspecified)	-13	0	-12	-5	i	-8	14	23
COc1ccc(/C=C(/NC(=O)c2ccccc2)C(=O)N/N=C/c2sccc2C)cc1	x	4	4	-5	i	-9	-10	5
Oc1ccc(Oc2ccc(Oc3ccc(O)cc3)cc2)cc1	-9	-6	-1	57	i	-4	8	51
COc1ccc(CCNC(=O)/C=C/C(=O)O)cc1OC	x	1	-1	-15	i	8	7	-5
Carrying on:
SMILES	Yeast UUG start	MT1-MMP act inh	MT1-MMP act inh RFP	CSC inhib	Rce1 inh	eIF4H inh	PABP polyA inh	HIV Env fusion	others
S=c1[nH]nc(-c2ccccc2)n1/N=C/c1c[nH]c2ccccc12	-32	7	3	7	i	-8	-8	x
CCOC(=O)N1CCN(C(=O)CN(CC)S(=O)(=O)c2cc(C)ccc2OC)CC1	-6	2	3	12	i	-15	-7	-5
C/C(=N/NC(=O)c1ccn(C)n1)c1ccncc1	-8	-1	-2	11	i	-4	10	2
O=C(CCN1C(=O)c2ccccc2C1=O)Nc1sc2c(c1C(=O)NCC1CCCO1)CCC2 (stereo unspecified)	-17	2	-3	-3	i	0	-3	2

Screens from PubChem.
